High-throughput results as filed in PubChem BioAssay.
UUG fidelity – modulators of start codon recognition fidelity in yeast; S. cerevisiae UUG-firefly luciferase reporter, luminescence/redox ratio; activity score, % at 18.7 µM; 350,000 tested, 0.13% active; AID 602363;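 active means replicate mean at a twofold rise or more, about +100% in these data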;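 further: firefly luciferase made from a UUG start codon reports start codon fidelity; reporter light over untreated wells divided by growth signal over untreated wells; some hits fall short of that in this replicate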
MT1-MMP act inh – inhibitors of human MT1-MMP activation | P50281 | HT1080 RFP-PRO-GFP cells, GFP/RFP ratio fluorescence, overnight; percent of plate control window, DMSO zero | GFP/RFP ratio change, % at 20 µM | 360,000 tested, 0.061% active;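 active means GFP/RFP ratio change of at least 30% with cell ATP level not reduced by more than half and red fluorescence within 50% of control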; further: strong numbers were not always called active
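Test system: HT1080 cells expressing an RFP-PRO-GFP fluorescent reporter construct / Compound dosing: single-point 20 µM compound, 1% DMSO / Schedule: cells overnight before dosing, compound overnight, 37 °C, 5% CO2 / Evaluation: GFP/RFP fluorescence ratio / Control set: DMSO and RFP-L50D-GFP cell wells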
MT1-MMP act inh RFP – second read-out of MT1-MMP act inh, no call of its own (marks repeat the call); RFP signal change, %; measured here: RFP expression control read;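 0 = vehicle wells; hits needed this value within 50% of zero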
An asterisk follows results filed as active; & = joins results of further samples.

The line under a structure holds: UUG fidelity, MT1-MMP act inh, MT1-MMP act inh RFP
- CNc1nc(Nc2ccc(C(=O)OC)cc2)c2sccc2n1
  -25, 4, -2
- S=C(NCCCCN(Cc1ccc(Cl)cc1)c1ccc(Br)cn1)NCCCc1cnc[nH]1
  -19, 5, 0
- O=C(NCC(O)c1nc2ccccc2[nH]1)c1cc([N+](=O)[O-])ccc1F (stereo not drawn)
  -17, -4, -3
- CCSc1nnc(NC(=O)CN2C(=O)NC3(CCCC3)C2=O)s1
  -3, 0, 1
- COc1ccc(C(=Cc2cc(OC)c(OC)cc2[N+](=O)[O-])C(=O)O)cc1
  -8, 3, 9
- CCCCN1C(=O)C(CC(=O)NCc2cccc3ccccc23)CC(C(=O)N(CC)CC)=C1C (stereo not drawn)
  -8, 1, 0
- COc1ccc(CC(=O)N(C)CC(=O)Nc2ccc(F)cc2)cc1S(=O)(=O)N1CCOCC1
  -1, -2, 3
- CN(C)C(CNC(=O)c1ccc(S(=O)(=O)Nc2ccccc2F)cc1)c1ccco1 (stereo not drawn)
  0, -1, 3
- CCN1CCN(S(=O)(=O)c2ccc(Cl)c(C(=O)N(C)Cc3ccc(C(C)(C)C)cc3)c2)CC1
  12, -1, -11
- CCN(c1ccccc1)S(=O)(=O)c1cccc(C(=O)N(C)CC(=O)Nc2ccc(F)c(F)c2F)c1
  -6, -1, -2
- COc1ccc([C@H]2C[C@@H](n3cc(-c4ccc(F)cc4)nn3)[C@H](O)CN2CC2CCCCC2)cc1
  0, -8, -9
- O=c1[nH]c2ccccc2c(=O)c2ccccc12
  -41, -6, 4
- O=C1NC(Cc2ccc(O)cc2)c2nc3ccc(F)cc3c(=O)n2-c2cc3ccccc3cc21 (stereo not drawn)
  9, -18, -19
- COc1ccc(S(=O)(=O)N2CCCCCC2)cc1C(=O)NCc1cccs1
  -4, -2, -2
- COc1ccc(C(=O)NCC(c2ccco2)N2CCCCC2)cc1S(=O)(=O)Nc1ccc(C)cc1 (stereo not drawn)
  -17, 0, 5
- O=C(Nc1nnc(C2CC2)s1)c1ccc(Cl)nc1
  -34, 3, 1
- CC(C)CC1NC(=O)c2cccnc2-n2c1nc1cc(F)ccc1c2=O (stereo not drawn)
  1, 4, 5
- COc1ccc(NC(=O)CC2(CC(=O)N3CCOCC3)CCCC2)cc1Cl
  3, 4, 5
- COc1ccccc1NS(=O)(=O)c1cccc(C(=O)N2CCCCCC2)c1
  -6, 5, 0
- O=C(NCc1ccc(F)cc1)c1cc2c(cc1Cl)N1CCCCCC1=NS2(=O)=O
  -5, 4, -2

Three entries drawn at random from those above, as already listed:
The line under a structure holds: UUG fidelity, MT1-MMP act inh, MT1-MMP act inh RFP
- CCCCN1C(=O)C(CC(=O)NCc2cccc3ccccc23)CC(C(=O)N(CC)CC)=C1C (stereo not drawn)
  -8, 1, 0
- COc1ccc(NC(=O)CC2(CC(=O)N3CCOCC3)CCCC2)cc1Cl
  3, 4, 5
- CCSc1nnc(NC(=O)CN2C(=O)NC3(CCCC3)C2=O)s1
  -3, 0, 1

(list continues)
The line under a structure holds: UUG fidelity, MT1-MMP act inh, MT1-MMP act inh RFP
- CCCCN(C(=O)c1cccc(S(=O)(=O)N(CC)c2ccccc2)c1)c1c(N)n(CCCC)c(=O)[nH]c1=O
  -8, -1, -3
- Cc1cccc(-c2nc(CC(=O)Nc3cccc(S(=O)(=O)NC4=NCCC4)c3)cs2)c1
  -10, 5, -5
- COc1ccc(S(=O)(=O)N(C)C[C@H]2Oc3ccc(NC(=O)CCC(F)(F)F)cc3C(=O)N([C@H](C)CO)C[C@@H]2C)cc1
  6&-14, 2, 6
- OC1c2cc(Cl)ccc2-c2c(Cl)cc(Cl)cc21 (stereo not drawn)
  1, -1, 4
- CCC(=O)Nc1ccc(C(=O)CN2C(=O)NC3(CCOc4ccccc43)C2=O)cc1 (stereo not drawn)
  -14, -2, 2
- O=C(N/N=C/c1ccccc1Br)c1cccc(S(=O)(=O)N2CCOCC2)c1
  -2, 4, 2
- COCCN(CC(=O)Nc1cccc(C)c1C)C(=O)c1ccc2ccccc2n1
  7, -3, 2
- CC(C)C1C(=O)N(Cc2cn(CCC3OCCO3)nn2)CCS(=O)(=O)N1Cc1ccc(-c2ccncc2)cc1 (stereo not drawn)
  -16, 3, 4
- COc1ccc(OCCN2CCCC2)cc1Nc1nnc(Cl)c(Nc2ccccc2S(C)(=O)=O)n1
  -1, 4, -23
- COc1ccc(OCCOc2ccc(S(=O)(=O)N3CCCC3)cc2C(N)=O)cc1
  -5, -1, -2
- CN1/C(=C/C(=O)COC(=O)CN2C(=O)C3CC=CCC3C2=O)C(C)(C)c2ccccc21 (stereo not drawn)
  -2, 4, 4
- Cc1ccc(NC(=O)c2cccc(-n3cnnn3)c2)cc1Cl
  -9, 2, 0
- CCCNC(=O)C1(C)CCCN(Cc2ccccc2-c2ccccc2)C1 (stereo not drawn)
  -13, -1, 3
- CCOC(=O)C1=CCC(c2ccccc2)N(S(=O)(=O)c2ccccc2[N+](=O)[O-])C1 (stereo not drawn)
  -11, 3, 1
- CCc1nc2c(OCCOc3ccccc3)cccn2c1N(C)C(=O)C1CC1
  -17, -2, 0
- O=c1cc(CN(Cc2ccccc2)Cc2ccccc2)c2ccccc2o1
  -12, 0, -4
- S=C1SCN(CCc2ccccc2)CN1CCc1ccccc1
  -9, -3, 3
- CC(C)N(C(=O)[C@H]1C[C@H](CC(=O)NCCCn2ccnc2)C(=O)N2CCc3c([nH]c4cc(-c5ccco5)ccc34)[C@]12C)C(C)C
  -23, 2, -3
- Cc1cccc(C)c1NC(=O)CNC(=O)CNC(=O)c1ccc2ccccc2c1
  -15, -2, -2
- COc1ccccc1Nc1nnc(SCC(=O)NC2CC2)s1
  -1, -1, 3

Next section:
The line under a structure holds: UUG fidelity, MT1-MMP act inh, MT1-MMP act inh RFP
- COc1cccc(/C=C/C(=O)NNC(=O)c2ccco2)c1OC
  -41, -5, 4
- O=C(Cc1cccs1)NNC(=O)c1ccccc1Cl
  -4, -2, 1
- Cc1csc(NC(=O)CCCNC(=O)c2ccc(Cl)cc2)n1
  -8, 2, 4
- O=C(CCl)N1CCN(S(=O)(=O)c2ccc3c(c2)OCCCO3)CC1
  -13, 1, 4
- Cc1ccc(CN2CCC[C@]3(N[C@H](c4ccccc4)[C@@H]4C(=O)N(Cc5ccccc5)C(=O)[C@@H]43)C2=O)cc1
  -6, -2, 0
- COc1cccc(NC(=O)CN(C)C(=O)c2ccc(-n3cncn3)c([N+](=O)[O-])c2)c1
  -32, 3, -1
- O=C(Nc1ccc(Cl)cc1F)c1ccc(-n2cncn2)cc1
  -10, 7, -4
- CCN(CC)C(=O)[C@H]1C[C@H](CC(=O)NCc2cccc(C(F)(F)F)c2)C(=O)N2CCc3c([nH]c4cc(-c5ccco5)ccc34)[C@]12C
  -9, -9, -12
- CC1=C(C(=O)N2CCCCCC2)CC(CC(=O)NCCCN(C)C)C(=O)N1Cc1ccccc1 (stereo not drawn)
  -11, 2, 8
- C=C(C)C(O)Cc1c(OC)ccc(C(=O)/C=C/c2ccc(O)cc2)c1O (stereo not drawn)
  -10, 2, -1
- CCN(CC)S(=O)(=O)c1ccc(N2CCCC2)c(NC(=O)c2nn(C)c(=O)c3ccccc23)c1
  11, 0, 2
- CCOC(=O)C1(C)CCCN1C(=O)c1cncc(Br)c1 (stereo not drawn)
  -16, -1, 4
- O=C(CNc1ccc(Br)cc1)Nc1ccc(S(=O)(=O)N2CCCC2)cc1
  -19, 1, -1
- CCc1nc2c(OCc3cccc(Cl)c3)cccn2c1N(C)C(=O)C1CC1
  -19, -12, -10
- CC(CC(=O)OCC(=O)Nc1ccc2[nH]c(=O)[nH]c2c1)c1ccccc1 (stereo not drawn)
  -24, 1, 3
- O=C(CCc1c[nH]c2ccccc12)NN1C(=O)NC2(CCCCC2)C1=O
  -6, 6, 3
- O=C(CSc1nnc(-c2ccccc2F)o1)Nc1ccc(N2CCOCC2)cc1
  -16, 1, 1
- O=C(c1cn(-c2ccccc2)nc1-c1cccnc1)N1CCN(S(=O)(=O)c2ccc(Cl)cc2)CC1
  8, -2, 0
- Cc1cn(C2CCCO2)c(=O)nc1N (stereo not drawn)
  -12, 3, 3
- C[C@@H]1CN([C@H](C)CO)C(=O)CCCn2nncc2CO[C@H]1CN(C)C(=O)Nc1cccc2ccccc12
  -3&-4, 0, 2

Part of the list above, with values ahead of the structure.
UUG fidelity | MT1-MMP act inh | MT1-MMP act inh RFP | structure
11 | 0 | 2 | CCN(CC)S(=O)(=O)c1ccc(N2CCCC2)c(NC(=O)c2nn(C)c(=O)c3ccccc23)c1
-16 | -1 | 4 | CCOC(=O)C1(C)CCCN1C(=O)c1cncc(Br)c1 (stereo not drawn)
-19 | 1 | -1 | O=C(CNc1ccc(Br)cc1)Nc1ccc(S(=O)(=O)N2CCCC2)cc1

Continuation.
The line under a structure holds: UUG fidelity, MT1-MMP act inh, MT1-MMP act inh RFP
- CC(C)N1CCC1(C)C(=O)Nc1ccccc1OC(F)F (stereo not drawn)
  -16, -4, 2
- CC(=O)NC(CC(=O)Nc1cccc(S(=O)(=O)N2CCOCC2)c1)c1ccccc1 (stereo not drawn)
  -13, 0, 3
- CC12CCC(C(S(=O)(=O)Nc3ccccc3)C1=O)C2(C)C (stereo not drawn)
  -20, 3, 0
- O=S(=O)(Nc1ccccc1F)c1ccc(Cl)nc1
  -3, -2, 2
- CC(C)C1C(=O)N(Cc2cn(Cc3ccco3)nn2)CCS(=O)(=O)N1Cc1ccc(-c2ccc(F)nc2)cc1 (stereo not drawn)
  -20, -3, -2
- COc1ccc(NS(=O)(=O)c2ccc(O)c([N+](=O)[O-])c2)cc1S(=O)(=O)N1CCCCC1
  -10, 3, 0
- CCOC(=O)N1CCN(C(=O)C2CCN(C(=O)c3ccccc3C)CC2)CC1
  -21, 2, 6
- COc1ccccc1[C@H]1C(c2ccccc2)=NN(c2ccccc2)[C@@H]1CO
  18, 5, 1
- CCN(C(=O)COC(=O)c1cc([N+](=O)[O-])ccc1N1CCOCC1)c1ccccc1
  -5, -8, -4
- CCN1C(=O)[C@@H]2[C@@H]3CN(S(=O)(=O)c4ccccc4C)[C@@H](c4ccc(Cl)cc4)[C@@H]3C(=O)C[C@@H]2C1=O
  11, -1, 1
- O=C(NCc1ccccn1)C1CCN(S(=O)(=O)c2ccccc2F)CC1
  -30, -4, 0
- Cc1cc(NC(=O)COC(=O)CCn2c(C)csc2=O)c([N+](=O)[O-])cc1C
  -15, -4, 5
- C1CCC(NC2=NCCO2)CC1
  3, -4, -1
- COc1ccccc1N(C)S(=O)(=O)c1ccc(C)c(C(=O)NC(C)c2ccccn2)c1 (stereo not drawn)
  2, 6, -1
- CN1CCN(C(=O)c2cc3c(c(-c4cccc(Br)c4)n2)[C@@H](CCO)N(S(=O)C(C)(C)C)C3)CC1 (stereo partly drawn)
  -6, 4, 7
- Cc1ccc(C(=O)Nc2ccncc2)cc1S(=O)(=O)N1CCCCC1
  -22, 8, -24
- COCC(=O)Nc1ccc2c(c1)[C@@H]1C[C@H](CC(=O)NCc3ccccc3)O[C@@H](CO)[C@@H]1O2
  -15, 4, 6
- CC(C)=CCC[C@H](C)C[C@@H]1CC2=C(C(=O)OC(C)(C)O2)[C@H](c2ccc(Cl)cc2)O1
  1, -2, -10
- CCCc1nnc(NC(=O)c2oc3ccccc3c2COCC)s1
  -8, 2, 1
- COc1ccc2sc(-c3ccccc3OC)c(-c3ccc(OCCN4CCOCC4)cc3)c2c1
  -22, -3, -4
- Cc1ccc(C)c(S(=O)(=O)N(C)c2ccc(OC(=O)C3CCN(C(=O)c4ccc(F)cc4)CC3)cc2)c1
  -18, 2, -1
- CCOc1ccccc1NC(=S)C(=C([O-])c1ccc2c(c1)OCCO2)[n+]1ccc(CC)cc1
  -34, -2, 3
- C=CCN(c1ccc(OC)cc1)S(=O)(=O)c1ccc(Cl)c(C(=O)OCC(=O)c2c(N)n(C)c(=O)n(C)c2=O)c1
  -13, -5, -6

An excerpt from above, showing only UUG fidelity and MT1-MMP act inh RFP:
Molecule	UUG fidelity	MT1-MMP act inh RFP
COc1ccccc1[C@H]1C(c2ccccc2)=NN(c2ccccc2)[C@@H]1CO	18	1
CCN(C(=O)COC(=O)c1cc([N+](=O)[O-])ccc1N1CCOCC1)c1ccccc1	-5	-4
CCN1C(=O)[C@@H]2[C@@H]3CN(S(=O)(=O)c4ccccc4C)[C@@H](c4ccc(Cl)cc4)[C@@H]3C(=O)C[C@@H]2C1=O	11	1
O=C(NCc1ccccn1)C1CCN(S(=O)(=O)c2ccccc2F)CC1	-30	0
Cc1cc(NC(=O)COC(=O)CCn2c(C)csc2=O)c([N+](=O)[O-])cc1C	-15	5
C1CCC(NC2=NCCO2)CC1	3	-1

Not all compounds are listed; count on the stated rates, not on these rows.
